# Assay outcomes: PubChem BioAssay, several laboratories
# INS promoter inh – TRM-6 insulin promoter activity inhibition | 130,000 compounds, 0.9% hits | inhibition, % at 2 µM | AID 1273 | TRM-6 cells (human fetal islet line), insulin promoter-eGFP reporter, imaging; reporter expression induced with tamoxifen;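 active = inhibition above the mean plus 3 SD, with well images judged a real hit on visual review, cut at about 60% in these data, passing the limit was not always enough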
# RGS16-Gao – RGS16-Galphao interaction regulator (human) | O15492+P09471 | bead-based flow cytometry RGS16-Galphao binding, fluorescence; actives lie on both sides | binding response (% of control), % at 10 µM | 220,000 compounds, 0.38% hits | AID 1441;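 active = below 25% or above 175%, edge rows of some plates excepted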;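 also: Galphao activated by GDP with aluminum fluoride before binding; 100% = wells without compound and 0% = beads without RGS; some results beyond the cut were filed as inactive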
# HSV augment – HSV replication enhancement; HSV replication augmentation in cells, fold increase; maximum fold increase; 220,000 compounds, 0.005% hits; AID 1956;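 active = peak rise of 1.5-fold or more in the series; tested in PC3 cells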;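 also: first round at 10 µM; read as green reporter fluorescence; hits show the peak of a series up to 25 µM; 1 = signal of infected wells without compound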
# GALR2 agonist – GALR2 (human) receptor agonism; activation, %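 (tested at 5 µM)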; GALR2-expressing cells, agonist activation read-out; 140,000 compounds, 0.48% hits; O43603;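 active = above mean plus 3 SD of all compounds, about 5% in these data, not always enough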;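 also: 0% = vehicle buffer wells and 100% = reference agonist at full effect; tested in CHO reporter cells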
# PKD1 kinase inh – PKD1 (human) kinase inhibition; inhibition, %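 (about 10 µM by stock and volumes)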; AID 797; Q15139; PKD1 kinase fluorescence polarization assay; 200,000 compounds, 0.056% hits;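 active = inhibition of 50% or more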;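 also: controls were vehicle for no effect and a reference inhibitor for full effect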
# Target sequence (Q15139 whole entry, looked up): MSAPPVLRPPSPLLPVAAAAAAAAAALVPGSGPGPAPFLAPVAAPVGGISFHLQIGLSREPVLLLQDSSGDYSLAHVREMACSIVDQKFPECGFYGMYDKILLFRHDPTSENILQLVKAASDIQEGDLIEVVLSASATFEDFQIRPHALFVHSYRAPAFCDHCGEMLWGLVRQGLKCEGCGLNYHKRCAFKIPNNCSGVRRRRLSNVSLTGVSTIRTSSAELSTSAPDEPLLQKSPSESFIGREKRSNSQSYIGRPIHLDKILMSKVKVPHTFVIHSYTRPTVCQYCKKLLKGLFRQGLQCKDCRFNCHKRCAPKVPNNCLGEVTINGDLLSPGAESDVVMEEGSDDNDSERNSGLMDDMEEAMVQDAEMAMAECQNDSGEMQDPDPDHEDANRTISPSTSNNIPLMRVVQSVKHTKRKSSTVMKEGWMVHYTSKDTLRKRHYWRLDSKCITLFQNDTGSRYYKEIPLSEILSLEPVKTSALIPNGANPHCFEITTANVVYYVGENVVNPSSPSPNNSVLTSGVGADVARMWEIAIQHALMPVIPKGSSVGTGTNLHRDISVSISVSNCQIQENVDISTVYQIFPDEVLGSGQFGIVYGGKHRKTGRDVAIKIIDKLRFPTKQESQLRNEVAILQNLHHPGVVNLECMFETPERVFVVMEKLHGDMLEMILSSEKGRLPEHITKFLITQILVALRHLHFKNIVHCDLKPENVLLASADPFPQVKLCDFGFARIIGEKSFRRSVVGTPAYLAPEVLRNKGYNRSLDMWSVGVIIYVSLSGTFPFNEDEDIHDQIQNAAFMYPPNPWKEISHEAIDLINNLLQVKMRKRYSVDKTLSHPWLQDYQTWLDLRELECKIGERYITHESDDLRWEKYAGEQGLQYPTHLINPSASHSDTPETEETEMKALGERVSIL
# INS promoter inh cell count – second read-out of INS promoter inh, no call of its own (marks repeat the call); normalized cell count, %; measured here: cell count, toxicity; reference of the scale not given here;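 cells exposed to compound for 48 h; stained nuclei by imaging scaled within each plate; lower means fewer cells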
# HSV augment primary fold – recorded beside HSV augment, whose call it bears; fold increase; compound at 10 µM; measured here: primary screen fold increase 10 uM; tested in PC3 cells;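 GFP signal in the first replicate; 1 = infected wells without compound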
# An asterisk follows results filed as active; i = inactive; nt = no result given. Not a hit list; any-hit rate near 1.2%.
SMILES,INS promoter inh,INS promoter inh cell count,RGS16-Gao,HSV augment,HSV augment primary fold,GALR2 agonist,PKD1 kinase inh
Cc1ccccc1NC(=O)Nc1cccs1,19,100,88,i,1,-1.4,-6
CN(C)c1nc(SCc2ccccc2)nc(N2CCOCC2)n1,11,26,102,i,0.93,-1.8,-2
Cc1[nH]n(C(N)=S)c(=O)c1N=Nc1ccc2ccccc2c1,nt,nt,102,i,0.9,nt,-2
COC(=O)Cn1cc(/C=C/[N+](=O)[O-])c2ccccc21,nt,nt,96,i,1,nt,1
Cc1ccccc1OCCC(=O)Nc1cccc(S(=O)(=O)Nc2ccccc2Cl)c1,-15,81,41,i,0.95,-2.0,-7
CC1=C(C)[N+](=O)C2(O)CCCCC2(C)N1[O-] (stereo not drawn),23,110,99,i,1,-0.9,-10
CC1(C)CC(=O)C=C(NCC(=O)O)C1,nt,nt,96,i,0.94,-0.9,-5
CCCCN(C)C(=O)c1coc(=O)c2ccccc12,nt,nt,114,i,1,-0.9,-6
CC(C)Cn1c(-c2ccco2)n[nH]c1=S,30,110,100,i,0.9,-3.2,2
COc1ccc(-c2nsc(SCC(=O)Nc3ccc4c(c3)OCO4)n2)cc1,4,90,99,i,0.86,-1.8,-2
C=CCn1c(SCCCCCC)nc(O)cc1=O,-35,98,94,i,1.1,-3.2,3
O=C(Oc1ccc2c3c(c(=O)oc2c1)CCCC3)c1cccs1,nt,nt,101,i,0.94,0.2,3

# Copied from the list.
# CCCCN(C)C(=O)c1coc(=O)c2ccccc12 in GALR2 agonist = -0.9
# CC1(C)CC(=O)C=C(NCC(=O)O)C1 in PKD1 kinase inh = -5

# Next part:
SMILES,INS promoter inh,INS promoter inh cell count,RGS16-Gao,HSV augment,HSV augment primary fold,GALR2 agonist,PKD1 kinase inh
CCC(C)NC(=O)Cc1c(OC)ccc2cc(Br)ccc12 (stereo not drawn),nt,nt,100,i,0.94,nt,-3
Cc1ccc(C2CC(=O)NC(SCC(=O)OCc3ccccc3)=C2C#N)o1 (stereo not drawn),17,96,81,i,1,0.9,11
O=c1oc2cc(O)ccc2cc1-c1ccc(F)cc1,20,95,97,i,0.85,15*,1
Cc1cc(C(=O)CSc2nnc(-c3cccnc3)n2-c2ccccc2)c(C)n1CC1CCCO1 (stereo not drawn),-16,96,96,i,0.86,-1.7,-4
Cn1cnnc1Sc1ccc(/C=C(\CCC(=O)O)c2nc3ccccc3s2)cc1[N+](=O)[O-],-7,139,106,i,0.94,nt,-3
O=C(Nc1ccc(N2CCOCC2)c(Cl)c1)c1c(F)c(F)c(F)c(F)c1F,-11,152,82,i,0.64,-2.9,-6
CCOC(=O)c1cccc(NC(=S)NCc2ccc(C)cc2)c1,nt,nt,92,i,1.1,nt,0
COc1ccc(C(=O)Oc2ccc(C(=S)N3CCCC3)cc2)cc1OC,60,114,92,i,1,0.3,-9
COc1ccccc1-c1ccc(NC2CCCC2)nn1,-419,85,99,i,0.87,-3.4,4
Cn1c(SCC(=O)N2CCCC2=O)nnc1-c1ccccc1F,9,214,108,i,1,nt,-3
Nc1[nH]ncc1N=Nc1ccc(Cl)cc1,16,80,104,i,0.87,-1.6,-5
COc1ccc(NC(=O)CSc2nc3ccccc3c(=O)n2CCNC(C)=O)cc1,nt,nt,96,i,0.87,-1.4,-3
Cc1ccc(-c2cc(=O)[nH]c3ccccc23)cc1,62,117,nt,i,0.98,-2.4,-6
Cc1ncc(/C=C2\C(=O)Nc3ccccc32)[nH]1,nt,nt,106,i,1,nt,nt
NC(=O)CCc1c[nH]c2ccccc12,nt,nt,112,i,1.2,-2.6,3
Cc1ccc(-n2nnnc2SCC(=O)N2CCCCC2)cc1,-3,65,101,i,0.81,-2.8,-3
NS(=O)(=O)c1ccc(NC(=O)COC(=O)c2ccc([N+](=O)[O-])s2)cc1,nt,nt,103,i,0.97,nt,nt
O=C(CCN1CCOCC1)Nc1ccccc1,0,139,103,i,0.96,-4.2,4
Cc1ccc(-c2nc(NCc3ccco3)n(S(C)(=O)=O)n2)cc1,8,83,102,i,0.87,nt,-2
CCCCn1c(SCC(=O)c2cc(OC)ccc2OC)nc2cc(S(N)(=O)=O)ccc21,39,103,106,i,0.59,68*,6
CC1CCCCC12NC(=O)N(CC(=O)Nc1ccc(S(=O)(=O)N3CCOCC3)cc1)C2=O (stereo not drawn),0,88,106,i,1.2,-0.5,3
COc1ccc(NC(=O)c2ccc3c(c2)C(=O)N(Cc2cccnc2)C3=O)c(OC)c1,nt,nt,65,i,0.95,-1.6,-6
COc1ccc(C(=O)C2CCCN(C(=O)c3n[nH]c4c3CCCC4)C2)cc1OC (stereo not drawn),nt,nt,98,i,0.99,nt,-6
N#CC12CCCCC1CC1CCCCC1(C#N)N2Cc1cccnc1 (stereo not drawn),nt,nt,130,i,1.1,-1.6,-9
c1ccc(-c2ccn3nnnc3n2)cc1,0,167,100,i,0.83,0.3,2
COc1cc(=O)n(C)c2c(O)cccc12,nt,nt,105,i,1,nt,3
COc1ccc(Cl)cc1C(=O)CSc1nnnn1C1CCCCC1,-37,127,103,i,0.93,1.4,0
CCOc1ccc(-c2nnc(-c3snc(-c4ccc(F)cc4)c3N=CN(C)C)o2)cc1,nt,nt,94,i,1.1,-2.0,-3
Cc1nc2ccc(NC(=S)NC3CCCCC3)cc2nc1C,38,70,105,i,1,nt,3
Cc1nc(S/C(=C/c2ccc(-c3cccc(Cl)c3)o2)C(=O)O)n[nH]1,7,83,96,nt,nt,-1.7,6
COc1cc(-c2nnc3sc(C4CCCCC4)nn23)cc(OC)c1OC,nt,nt,104,i,1.1,1.7,-8
CCOC(=O)/C=C/C(=O)OCC(=O)Nc1ccc(Cl)cc1Cl,nt,nt,99,i,0.91,nt,6
O=C(O)c1ccc(S(=O)(=O)NC2CCCCC2)cc1,47,46,106,i,0.97,-0.8,-15
CC(c1ccon1)N(C)Cc1cn[nH]c1-c1ccc(-c2ccccc2)cc1 (stereo not drawn),nt,nt,95,i,0.9,nt,3
COc1cccc2cc(C(C)=O)oc12,nt,nt,112,i,0.93,nt,-1
c1cc(C(c2nnnn2C2CCCCC2)N2CCN3CCCC3C2)ccn1 (stereo not drawn),-352,42,103,i,1.1,0.9,-5
CNCc1cc2ccc(C)cc2[nH]c1=O,nt,nt,94,i,1.2,-0.4,4
COc1ccc(C(=O)CN2Cc3ccccc3C2=N)cc1,nt,nt,98,i,0.87,nt,nt
COc1cccc(C2C(C(C)=O)=C(O)C(=O)N2CCNCCO)c1 (stereo not drawn),-5,83,113,i,0.92,nt,7
O=C(NNC(=O)C1CCCN(S(=O)(=O)c2cccc(F)c2)C1)C1CC1 (stereo not drawn),-27,79,100,i,1.1,nt,3
COc1cccc(C(=O)N/N=c2\sc3ccccc3n2C)c1,45,104,34,i,0.95,0.3,4
Cc1nnc(Nc2ccc3c(c2)OCO3)c2ccccc12,64,139,102,i,1,-3.9,-3
CCOC(=O)c1nn(-c2ccc(F)cc2)cc1O,18,122,103,i,1,nt,3
CCOC(=O)CNc1nc(Cl)nc(Nc2ccc(Cl)cc2)n1,nt,nt,96,i,0.92,nt,nt
COC(=O)c1ccccc1NC(=O)CN1C(=O)CSC1=O,-4,97,nt,i,0.85,-2.1,5
CCN(CC)CCCNC(=O)c1c(O)c2c([nH]c1=O)CCCC2,-22,123,108,i,0.9,0.1,12
CCc1ccc2c(CN3CCc4ccccc43)cc(=O)oc2c1,nt,nt,102,i,1.1,-2.2,3
CCC1CCCCN1CC(=O)Nc1cc(OC)c(OC)cc1C#N (stereo not drawn),nt,nt,103,i,0.93,nt,0
c1ccc(-c2cn3c4c(sc3n2)CCCC4)cc1,0,81,95,i,0.91,-0.2,2
CC(C)C(=O)N1CCC(c2nc(-c3ccc(S(=O)(=O)N4CCN(C)CC4)cc3)no2)CC1,44,152,105,i,1.1,nt,7
CC(C)(O)P(=O)(O)CCc1ccccc1,nt,nt,98,i,1.1,nt,nt
COC(=O)CN1C(=S)N(c2ccc(F)cc2)C(=O)C1CC(=O)Nc1ccc(OC)cc1 (stereo not drawn),nt,nt,99,i,1.1,nt,nt
CCN1C(=O)C(CC(=O)Nc2ccc(OC)cc2)N(CCCN2CCN(c3ccc(F)cc3)CC2)C1=S (stereo not drawn),-50,77,101,i,0.91,nt,-4
COc1ccccc1N1CCN(C(=O)CNC(=O)c2cn(-c3ccccc3OC)c(=O)c3ccccc23)CC1,-13,103,96,i,0.91,nt,-5
COc1ccc(N/C(C)=C2/C(=O)C(=O)N(CCO)C2c2ccc(Br)cc2)cc1 (stereo not drawn),-64,129,101,i,0.89,-0.3,-5
O=C(/C=C/Nc1ccccc1C(=O)O)c1cccs1,nt,nt,108,nt,nt,-0.9,-2
COCCNC(=O)C1CC(=O)N(C2CCCC2)C1 (stereo not drawn),-12,110,101,i,0.96,-2.2,3
Cc1cc(C)cc(CSc2nnc(C)c(=O)[nH]2)c1,62,106,101,i,0.93,0.4,0
CCOC(=O)c1c(CN2CCOCC2)n(-c2ccccc2)c2cc(Br)c(O)cc12,3,147,111,i,0.84,0.8,-6
COc1ccc(CCn2c(C)cc(C(=O)CSc3nnnn3-c3ccccc3)c2C)cc1OC,38,113,99,i,0.8,-2.9,-2

# (list continues)
SMILES,INS promoter inh,INS promoter inh cell count,RGS16-Gao,HSV augment,HSV augment primary fold,GALR2 agonist,PKD1 kinase inh
COC(=O)CSc1nnc([C@H](CC(C)C)NC(=O)OC(C)(C)C)o1,-31,151,104,i,0.84,-1.9,-14
Cc1ccccc1-c1nc(S(=O)(=O)c2ccc(Br)cc2)c(NCc2cccnc2)o1,-14,106,100,i,0.89,-1.4,-8
Cc1c(Br)c([N+](=O)[O-])nn1CC(=O)Nc1ccc(C(C)C)cc1,-8,75,104,nt,nt,nt,-3
C/C(=N\NC(=O)c1cccc([N+](=O)[O-])c1)c1cccs1,nt,nt,154,i,0.95,nt,nt
CCCCNC(=O)Nc1cc(C)on1,-4,105,111,i,0.85,-3.1,0
COc1ccc(C(C#N)c2ccc(Cl)nn2)cc1 (stereo not drawn),4,150,104,i,0.86,nt,-4
CCOC(=O)c1c(-c2ccccc2)csc1NC(=S)NC(=O)c1ccccc1,-72,70,96,i,0.94,-1.1,1
COc1ccc(-c2nnc(SCCOc3cccc(C)c3)n2N)cc1,12,95,116,i,0.91,-2.1,4
CN(Cc1ccccc1)C(=O)Cn1cccc1C(=O)c1ccccc1,-43,102,101,i,0.93,-0.8,1
Cc1noc(C)c1COC(=O)c1ccc(-c2nc3ccccc3s2)s1,-24,101,78,i,1.1,-1.2,-6
Cc1ccc(-n2c(=S)[nH]c3c(oc4ccccc43)c2=O)cc1C,nt,nt,99,i,1.1,1.6,-3
Cc1cccnc1NC1(C(F)(F)F)N=C2SCCN2C1=O (stereo not drawn),nt,nt,105,i,0.98,nt,-5

# An excerpt from above in order of molar mass, low to high.
SMILES,INS promoter inh,INS promoter inh cell count,RGS16-Gao,HSV augment,HSV augment primary fold,GALR2 agonist,PKD1 kinase inh
COc1cccc2cc(C(C)=O)oc12,nt,nt,112,i,0.93,nt,-1
Cc1nc2ccc(NC(=S)NC3CCCCC3)cc2nc1C,38,70,105,i,1,nt,3
CN(C)c1nc(SCc2ccccc2)nc(N2CCOCC2)n1,11,26,102,i,0.93,-1.8,-2
CC(c1ccon1)N(C)Cc1cn[nH]c1-c1ccc(-c2ccccc2)cc1 (stereo not drawn),nt,nt,95,i,0.9,nt,3
CCOC(=O)c1c(CN2CCOCC2)n(-c2ccccc2)c2cc(Br)c(O)cc12,3,147,111,i,0.84,0.8,-6

# Next results:
SMILES,INS promoter inh,INS promoter inh cell count,RGS16-Gao,HSV augment,HSV augment primary fold,GALR2 agonist,PKD1 kinase inh
COC(=O)c1cc(OC)c(OC)cc1NC(=O)c1cccc(C)c1,-11,164,102,i,0.92,nt,-6
COc1cc(C2C=C(Nc3ccccc3)C(=O)N2c2ccccc2)ccc1O (stereo not drawn),55,98,89,i,1.1,-0.1,-6
CC(C)(C)N(Cc1ccccc1)C(=O)COC(=O)c1cccc([N+](=O)[O-])c1,nt,nt,101,i,0.92,nt,-1
COc1ccccc1NC(=O)CSc1nc2nc(C)cc(C)c2c(=O)[nH]1,-31,82,103,i,1,-2.6,1
O=C(/C=C/c1ccccc1)NC(NC(=S)Nc1cc(Cl)ccc1Cl)C(Cl)(Cl)Cl (stereo not drawn),-77,157,94,i,0.86,-1.0,8
CCCCN(C)CCCNC(=O)c1ccc(N2CCCC2=O)cc1,nt,nt,102,i,0.93,-3.7,-3
Cc1cc(NS(=O)(=O)c2ccc(NC(=O)c3cc4cc(Br)ccc4oc3=O)cc2)no1,36,131,94,i,1.1,nt,2
